# MgrA-DNA mod: S. aureus MgrA-DNA binding modulation | fluorescence polarization | inhibition, %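 (about 10 µg/mL by stock and volumes)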 | 84,000 compounds, 0.13% hits | AID 602314;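 active = above 50% in either of two replicates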;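 note: 0% = protein plus DNA without compound and 100% = DNA alone without protein; higher means less MgrA bound to DNA so lower polarization; one replicate is shown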
# Sa helicase inh: blocks Staphylococcus aureus DNA helicase; 120,000 compounds, 0.05% hits; purified S. aureus helicase, fluorescence unwinding assay; about half of the hits fall short of the stated cut; inhibition, %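 (tested at about 80 µM)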; AID 485395;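 active = both duplicates at 50% or more, or one of them with a favoured structure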;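 note: 0% = mean of negative control wells and 100% = mean of positive control wells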
# An asterisk follows results filed as active; i = inactive; x = not tested or not shown; & = joins results of further samples.
MgrA-DNA mod	Sa helicase inh	canonical_smiles
x	8	CC1CN(C2CCN(Cc3ccccn3)CC2)CC(C)O1 (stereo not drawn)
1.0	x	O=C(O)CCC(=O)NCc1c(Cl)cccc1Sc1ccc(Cl)cc1
0.3	4	c1cc2c(cc1CN1CCSCC1)OCO2
1.3	x	O=C1c2ccccc2C(=O)c2c([N+](=O)[O-])ccc(O)c21
1.9	-7	Cc1nc(N)nc(OCC(F)(F)C(F)F)c1Br
0.6	14	Cc1ccc(NC(=O)c2ccc(Oc3ccc(C(=O)Nc4ccc(C)cc4)cc3)cc2)cc1
x	8	CCOc1ccc(C(=O)c2ccccc2C(=O)O)cc1OCC
-0.6	0	COC(=O)C1=C(Cn2cnc3ccccc32)NC(=O)NC1c1ccc(OC)cc1 (stereo not drawn)
x	13	Cc1ccc(CNC(=O)Nc2ccc(C(C)(C)C)cc2)n1C
-0.8	-6	O=C(CSc1ccccc1)Nc1ccccc1C(F)(F)F
-1.8	x	Cc1cc(S(=O)(=O)N2CC=C(c3ccccc3)CC2)c(C(F)(F)F)o1
2.8	12	COc1cc(/C=C2/SC(=Nc3ccccc3)N(CCc3ccccc3)C2=O)ccc1OCC(N)=O

# More entries:
MgrA-DNA mod	Sa helicase inh	canonical_smiles
x	9	O=C(COC(=O)C12CCC(=O)N1c1ccccc1S2)N1CCC(c2ccccc2)=N1 (stereo not drawn)
0.3	1	COc1ccc2[nH]c(=O)c(C(c3nnnn3Cc3ccccc3)N3CCCC3)cc2c1 (stereo not drawn)
-0.8	3	O=C(CN1CCN(Cc2ccccc2)C1=O)NCCCN1CCOCC1
-0.8	1	O=C1NC(C(F)(F)F)(C(F)(F)F)N=C2SC=C(C3CC3)N12
x	8	O=C(N/C=C/n1cnc2ccccc21)c1ccc(Cl)cc1
0.8	21	O=C(Nc1ccccc1C(=O)NC1CC1)c1ccco1
x	12	N#C/C(=C(/O)COc1ccccc1)c1nc2ccccc2s1
x	-7	CNC(=O)NC(=O)C(Sc1nnnn1-c1cc(C)ccc1C)c1ccccc1 (stereo not drawn)
-0.4	x	Cc1ccc(SCC(=O)Nc2c(Br)cnn2C)cc1
x	22	CCCCN1Cc2c(sc(C)c2C)N(C(=O)c2ccccc2)C1
x	12	CN(Cc1cccs1)C(=O)C1CCN(S(=O)(=O)c2ccccc2)CC1
2.5	x	COc1ccc(C2CC(=O)C3=C(C2)NC(C)=C(C(=O)OC2CCCC2)C3c2cccc([N+](=O)[O-])c2)cc1 (stereo not drawn)

# Entries listed so far containing a furan ring, fused or not (2):
MgrA-DNA mod	Sa helicase inh	canonical_smiles
-1.8	x	Cc1cc(S(=O)(=O)N2CC=C(c3ccccc3)CC2)c(C(F)(F)F)o1
0.8	21	O=C(Nc1ccccc1C(=O)NC1CC1)c1ccco1

# (listing goes on)
MgrA-DNA mod	Sa helicase inh	canonical_smiles
x	13	CCn1c(NCc2ccc(Br)cc2)nc2ccccc21
-0.8&-1.8	x	NS(=O)(=O)c1cc(C2(O)NC(=O)c3ccccc32)ccc1Cl (stereo not drawn)
-11	14	CCCOc1ccccc1C1NC(=S)NC(C)=C1C(=O)OC1CCCC(C)C1 (stereo not drawn)
x	7	Cc1noc(N)c1C(=O)OCc1ccc(C#N)cc1
4.7	10	C=CCc1c(C)c(C#N)c2nc3ccccc3n2c1NCCOCCO
3.3	x	O=C(c1ccc(OC(F)(F)F)cc1)c1ncc[nH]1
x	-24	Nc1nc(=O)n(CC(O)C(=O)O)cc1Br (stereo not drawn)
0.2	-10	Cc1cccc2c1nc1s/c(=C/c3cn[nH]c3-c3ccccc3)c(=O)n12
-0.1	-13	CC1CCCCN1C(=O)c1ccc(F)cc1F (stereo not drawn)
0.9	-6	O=C(Nc1ccccc1N1CCCCC1)C1CC(=O)N(Cc2ccccc2)C1 (stereo not drawn)
x	-31	O=C(NCCN1CCOCC1)c1nc(-c2ccc(Cl)cc2)n2c1CCCCC2
0.7	4	Cn1cccc1/C=N/NC(=O)c1sc2cc(Cl)ccc2c1Cl

# Reprinted from the part before: 2 compounds; new compounds follow.
MgrA-DNA mod	Sa helicase inh	canonical_smiles
x	-31	O=C(NCCN1CCOCC1)c1nc(-c2ccc(Cl)cc2)n2c1CCCCC2
0.7	4	Cn1cccc1/C=N/NC(=O)c1sc2cc(Cl)ccc2c1Cl
x	-12	O=S(=O)(c1ccc(-n2cnnn2)cc1)N1CC=C(c2ccc(F)cc2)CC1
x	7	CCC(=O)N(c1nnc(SCC(=O)c2ccc[nH]2)s1)C1CC1
x	-8	O=C(CSc1ncn[nH]1)NCCCc1ccccc1
x	6	COc1cccc(CNCCO)c1OCc1ccccc1F
1.1	x	CN(C)c1nc(N(C)C)nc(N2CC(=O)N(c3ccc(Cl)c(Cl)c3)C2=N)n1
0.6	0	COc1ccc(CCNC(=O)CSc2ccccc2Cl)cc1
-1.1	20	O=C(c1ccccc1)c1ccc(CBr)cc1
0.0	11	CC(C)(C)c1ccc(CNCc2ccco2)cc1
x	7	CC(C)CNC(=O)Cn1c(=O)cnc2ccccc21
2.0	x	COC(=O)CN(c1nc(C)cc(OC)n1)S(=O)(=O)c1ccc(C)cc1
x	-5	CCN1C(=O)/C(=C2\SC(=S)NC2=O)c2cc(Br)ccc21
x	4	CNC(=O)c1ccccc1S(=O)c1cccc2cccc(C(=O)OC)c12 (stereo not drawn)

# Next part
MgrA-DNA mod	Sa helicase inh	canonical_smiles
-2.2	-15	CSc1ncccc1C(=O)Nc1ccc(F)cc1
x	7	Cc1ccccc1CNCC1CCC(C(=O)O)CC1 (stereo not drawn)
3.0	-23	Cc1nc(C)c(-c2csc(Nc3ccccc3)n2)s1
-1.6	0	CC(C)CC(=O)N1CCN(C(=O)COc2ccc(-c3ccccc3)cc2)CC1
-2.5	x	O=C(Oc1ccc(Oc2ccccc2)cc1)N1CCC(O)CC1
x	-11	c1csc(-c2nnc(CON=C3c4ccccc4-c4ccccc43)o2)c1
x	-14	Cc1onc(-c2c(F)cccc2Cl)c1C(=O)N=C(N)N1CC(C)OC(C)C1 (stereo not drawn)
x	9	N=C1C(c2ccc(Br)cc2)=C(O)C2CCc3ccccc3N12 (stereo not drawn)
x	-4	O=C(O)c1cccnc1SCCc1ccccc1
2.7	x	O=c1cc(C(F)(F)F)nc(Cc2c(Cl)cccc2Cl)[nH]1
0.7	x	N#CC(C#N)=C(N)c1ccccc1
-2.2	x	O=C(c1ccccc1)N1CCOCC1

# (continued)
MgrA-DNA mod	Sa helicase inh	canonical_smiles
1.6	14	O=C(NCc1ccc(F)cc1)c1ccc(N2CCCS2(=O)=O)cc1
1.5	x	CNC(=S)NC1CCCCC1
-0.6	x	CCOC(=O)C(C#N)C(=O)c1c(-c2c(Cl)cccc2Cl)noc1C (stereo not drawn)
x	-6	COc1ccc(Cl)cc1-c1nc(SCC(=O)NC2CCS(=O)(=O)C2)n[nH]1 (stereo not drawn)
x	-6	CC(=O)N/N=C(\Cc1nc2ccccc2[nH]1)c1ccccc1
-1.8	x	O=C(Nc1ccc2nccnc2c1)c1cccnc1Oc1ccc(Cl)cc1
x	-121	Cn1/c(=N/N=C2c3cc(S(=O)(=O)NCCO)ccc3-c3ccc(S(=O)(=O)NCCO)cc32)sc2ccccc21
0.7	9	CCC(=O)c1ccc(OC(=O)c2cn(-c3ccccc3)nc2-c2ccccc2)cc1
x	-17	O=C(OCC(=O)N1CCCC1)c1ccc2c(c1)OCO2
0.3	0	O=C(NC1CC1)c1nc(-c2ccccc2)no1
-0.4	x	CC1CC(NC(=O)/C=C/C(=O)O)CC(C)(C)C1 (stereo not drawn)
10	i	O=C(c1ccccc1)c1ccc(O)cc1O

# Carrying on.
MgrA-DNA mod	Sa helicase inh	canonical_smiles
x	-7	COC(=O)c1ccc(COC(=O)c2ccc3[nH]c(C)c(C)c3c2)o1
2.5	-1	O=C(CCS(=O)(=O)c1ccc2c(c1)SCC(=O)N2)NCc1cccs1
-1.0	x	FC(F)(F)Oc1ccc(-n2c(CSCc3cccc4ccccc34)n[nH]c2=S)cc1
x	21	COc1ccc(NC(=O)C(C)NC(=O)C(c2ccccc2)c2ccccc2)cc1 (stereo not drawn)
-2.6	-2	CCC(c1nnnn1C1CCCC1)N(Cc1cccs1)Cc1cc2cccc(C)c2[nH]c1=O (stereo not drawn)
13	4	O=C(c1ccc2c(c1)N(Cc1ccccc1)CCS2)N1CCN(c2ccccn2)CC1
x	1	CN(C1CCCC1)C1CCN(c2ccc3nnc(-c4ccc(F)cc4)n3n2)CC1
x	9	CCS(=O)c1ccccc1C(=O)NCc1ccc(F)cc1 (stereo not drawn)
-2.8	-30	CCOC(=O)c1c(C#N)c(C)n(-c2ccccc2)c1C
2.5	x	c1ccc(-c2csc(Nc3cccnc3)n2)cc1
-1.4	-5	CN1CCN(C(=O)c2cc3ccccc3o2)CC1
2.1	x	CSc1ncc(C(=O)NN)n1C

# More results
MgrA-DNA mod	Sa helicase inh	canonical_smiles
-0.8	1	COc1cccc(C(=O)N2CCCCCC2)c1
-0.9	-19	O=S(=O)(NCC(Nc1ccccc1)c1ccccc1)c1ccc(Cl)cc1 (stereo not drawn)
-0.3	2	COC(=O)C1=C(CSc2nc3ccccc3o2)NC(=O)NC1c1cccc(OC)c1 (stereo not drawn)
-2.2	16	CC1CC(C)(C)NC(=S)N1CCCC(=O)N1CCN(c2ccccc2)CC1 (stereo not drawn)
0.2	x	CC[n+]1ccsc1Nc1c(C)cccc1C
x	-20	CCCn1c(NC(=O)[C@@H](NC(=O)c2cc(OC)cc(OC)c2)C(C)C)nc2ccccc21
x	28	CCN(c1ccc(OC)cc1)S(=O)(=O)c1ccc2c(c1)CC(C)N2C(C)=O (stereo not drawn)
x	16	COC(=O)c1c(NC(=O)/C(C#N)=C/c2ccco2)sc(C)c1C
-1.1	x	Cc1cc(C)c2c(=O)cc(-c3ccccc3Cl)oc2c1
2.9	x	CC(C)(C)c1ccc(-c2cc3nc(-c4cccs4)cc(C(F)(F)F)n3n2)cc1
-2.2	6	COc1ccc(CCC(=O)Nc2ccc(-c3noc(-c4ccc(OC)c(OC)c4)n3)cc2)cc1
5.1	x	Cc1ccc(OCC2CN(Cc3ccccc3)C(=O)O2)cc1 (stereo not drawn)

# Carrying on:
MgrA-DNA mod	Sa helicase inh	canonical_smiles
x	-10	CCOC(=O)c1cc(C)n(CC(=O)OCc2ccc(C#N)cc2)c1C
0.7	4	Cc1cccc(NC(=O)NCCN2CCOCC2)c1
x	12	Cc1nc2ccc(C(=O)NCc3ccccc3CN3CCCC3)cc2nc1C
-1.6	16	O=C(NCC1CCCO1)C1CCCN1C(=O)Nc1ccc(Cl)cc1 (stereo not drawn)
-1.9	3	COc1ccc(C(O)CCC(=O)O)cc1 (stereo not drawn)
x	-10	CCCn1c(N)c(C(=O)CN2CCc3ccccc3C2)c(=O)[nH]c1=O
x	-11	O=c1[nH][nH]c(=S)n1C1Cc2ccccc2C1
1.2	-17	S=C1CCCN1c1ccccc1
1.9	5	Cc1cc(C)c(OCC(=O)Nc2cc(-c3nc4ncccc4o3)ccc2C)c(Cl)c1
x	2	Cc1nc2ccccc2nc1SCC(=O)O
x	-21	CCCCSC1=C(C#N)C(=O)NC(c2ccc(OC)cc2)S1 (stereo not drawn)
x	18	Cc1ccc(-n2ncc(C(=O)NCCCN3CCCCC3)c2-n2cccc2)cc1

# Complete entries, quoted from the list.
# Shown for CCCn1c(N)c(C(=O)CN2CCc3ccccc3C2)c(=O)[nH]c1=O : MgrA-DNA mod = x; Sa helicase inh = -10
# Shown for CCCCSC1=C(C#N)C(=O)NC(c2ccc(OC)cc2)S1 (stereo not drawn) : MgrA-DNA mod = x; Sa helicase inh = -21

# Additional records
MgrA-DNA mod	Sa helicase inh	canonical_smiles
x	5	Cc1ccccc1Nc1nc(NCCN(CC(C)C)CC(C)C)nc2c1cnn2C
1.2	8	O=C(Cc1ccccc1)NCC(=O)N1CCN(c2ccccc2)CC1
-2.1	13	O=C1CCN(NC(=O)c2cccnc2)C(=O)N1
x	12	CC1CCC(N(C)c2nc(C(F)(F)F)nc3ccccc23)CC1 (stereo not drawn)
x	3	CCc1c(O)nc2n(c1=O)CCS2
0.7	18	CCOC(=O)C1CCN(C(=O)C(C(=O)c2ccccc2)n2ccccc2=O)CC1 (stereo not drawn)
-1.1	x	CC(C)(C)c1ccc(N=C(C#N)C2=C(O)c3ccccc3C2=O)cc1
0.6	7	COC(=O)CCCCC1SCC(NC(=O)OC)C1NC(=O)OC (stereo not drawn)
-0.7	-13	CCC(Sc1nc2ccncc2[nH]1)C(=O)N(Cc1ccccc1)C(C)C (stereo not drawn)
x	-30	N#C/C(=C(/O)Cn1cc(S(=O)(=O)N2CCCC2)ccc1=O)c1nc2ccccc2[nH]1
x	-8	CC1(C)CC(NC(=S)Nc2ccc(S(=O)(=O)N3CCOCC3)cc2)CC(C)(C)N1
x	-11	CN1CCc2nc(NC3=NCCCCC3)sc2C1

# 4 compounds already listed, ordered by the value under MgrA-DNA mod, ascending.
SMILES	MgrA-DNA mod	Sa helicase inh
Cc1cc(S(=O)(=O)N2CC=C(c3ccccc3)CC2)c(C(F)(F)F)o1	-1.8	x
CN(C)c1nc(N(C)C)nc(N2CC(=O)N(c3ccc(Cl)c(Cl)c3)C2=N)n1	1.1	x
COC(=O)CN(c1nc(C)cc(OC)n1)S(=O)(=O)c1ccc(C)cc1	2.0	x
c1ccc(-c2csc(Nc3cccnc3)n2)cc1	2.5	x

# Remaining list, next part:
MgrA-DNA mod	Sa helicase inh	canonical_smiles
x	21	CC(NC(=O)C1CCCN(C(=O)N(C)C)C1)c1ccccc1 (stereo not drawn)
x	-22	N#Cc1ccsc1NC(=O)CCSc1ccccc1
1.9	5	CN(C)c1nc(OCC(=O)NC(C)(C)C)nc(N(C)C)n1
x	-32	Cc1ccc2oc(=O)n(CC(=O)OCCC(C)C)c2c1
x	28	CCCCNC(=O)C1c2cc(OC)c(OC)cc2C(=O)N(C)C1c1ccc(OC)cc1 (stereo not drawn)
-0.7	x	COc1ccc(COC(=O)C2=C(C)NC(=O)NC2c2ccc(OC)c(OC)c2)cc1 (stereo not drawn)
x	-10	CN(C(=O)c1ccc2c(=O)n3c(nc2c1)CCCCC3)c1ccccc1
x	-8	CNCC(=O)Nc1ccccc1C(F)(F)F

# Some of the compounds tested; rates above refer to the full screens.
